# StopGo reporter – High Throughput Screening for Foot and Mouth Disease Virus Antivirals | actives 1.2% (n = 410,000) | Potency, µM (highest dose often 57.9 µM), without a hit: top-dose signal change, negative = less light | human cells with a luciferase reporter of 2A StopGo recoding; control for the full effect not named in the record | AID 1159524, 2015; active = well fitted falling curve with a large enough effect; inconclusive = small, poorly fitted or top-dose-only effect; inactive = no such curve, though single readings can be large or run the other way; tested in HEK293T cells; also: % is scaled to controls: 0 for no effect and ±100 for the full control effect; nearly all actives have a fitted effect of over 45% in size; luciferase light after 4 h
# NS1 inh – qHTS Assay for Inhibitors of Influenza NS1 Protein Function. S. cerevisiae slowed by influenza A NS1, growth recovery by OD600. Potency, µM (titrated, usually from 46.1 µM), without a hit: at the top dose activity, positive = more growth. actives 0.4% (n = 270,000). AID 2326, 2010; active means well fitted rising curve with a large enough effect; inconclusive means small, poorly fitted or top-dose-only effect; inactive means no such curve, though single readings can be large or run the other way; also: nearly all actives have a fitted effect of over 50% in size
#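 OD600 was taken as the measure of yeast growth restored by compound in an NS1-expressing S. cerevisiae strain. Cells had been washed out of glucose medium and diluted 1:100 into galactose -URA medium, pH 6.0.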
# Cruzain inh Det – qHTS Assay for Promiscuous and Specific Inhibitors of Cruzain (with detergent). purified cruzain, Z-FR-AMC fluorescence, 0.01% Triton. actives 0.43% (n = 200,000). AID 1478, 2009. Cruzipain (Trypanosoma cruzi), P25779. Potency, µM, without a hit: max response, negative = inhibition, hits mostly inhibitors;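 also: plate controls were neutral wells for no effect and buffer without enzyme for full effect; nearly all actives have a fitted effect of over 40% in size; top concentration of the series not given in the record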
# Target sequence (P25779 123-467 limits assumed): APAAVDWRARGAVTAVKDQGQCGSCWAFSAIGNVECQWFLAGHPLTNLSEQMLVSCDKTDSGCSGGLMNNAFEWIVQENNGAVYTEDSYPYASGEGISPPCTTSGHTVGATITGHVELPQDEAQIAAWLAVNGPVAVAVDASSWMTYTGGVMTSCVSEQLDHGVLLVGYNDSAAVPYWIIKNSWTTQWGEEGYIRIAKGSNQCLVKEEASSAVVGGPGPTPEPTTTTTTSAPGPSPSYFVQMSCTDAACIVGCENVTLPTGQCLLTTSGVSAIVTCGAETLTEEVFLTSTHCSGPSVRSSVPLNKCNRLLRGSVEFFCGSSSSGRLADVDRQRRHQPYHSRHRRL
#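 Purified cruzain (1.5 nM final) was preincubated with compounds for 15 min at room temperature in 100 mM sodium acetate pH 5.5, 5 mM DTT, 0.01% Triton X-100. Reaction started with 2 uM Z-FR-AMC; AMC fluorescence change over 60 s gave activity.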
# Lassa entry inh – qHTS for Inhibitors of binding or entry into cells for Lassa Virus | Lassa virus pseudotype entry inhibition, cell reporter; control for the full effect not named in the record | actives 1.2% (n = 300,000) | AID 540256, 2011 | Potency, µM (top dose mostly 37.9 µM), inactives show at the highest dose activity change, negative = inhibition, most hits filed as inhibitors; active means well fitted inhibition curve with a large enough effect; inconclusive means small, poorly fitted or top-dose-only effect, or effect the other way; inactive means flat fitted curve, though single readings scatter; tested in HEK293 cells; also: % is scaled to controls: 0 for no effect and ±100 for the full control effect; nearly all actives have a fitted effect of over 50% in size; luciferase read-out
# SARS PLP yeast – qHTS of Yeast-based Assay for SARS-CoV PLP | AID 485353, 2010 | actives 0.19% (n = 330,000) | Potency, µM (highest dose often 32.9 µM), inactives show top-dose activity, positive = growth rescue | S. cerevisiae expressing SARS-CoV PLpro, growth rescue; control for the full effect not named in the record; active means well fitted rising curve with a large enough effect; inconclusive means small, poorly fitted or top-dose-only effect; inactive means no such curve, though single readings can be large or run the other way; also: 0% is about no effect; nearly all actives have a fitted effect of over 55% in size; growth read by luminescence after 48 h
# MARV entry inh – qHTS for inhibitors of binding or entry into cells for Marburg Virus; Marburg virus pseudotyped entry inhibition, cell reporter; control for the full effect not named in the record; about a third of the inactives were read at about 46 µM; Potency, µM (titrated, usually from 37.8 µM), inactives show top-dose activity change, negative = inhibition, usual class: inhibitors; actives 1.8% (n = 300,000); active = well fitted inhibition curve with a large enough effect; inconclusive = small, poorly fitted or top-dose-only effect, or effect the other way; inactive = flat fitted curve, though single readings scatter; tested in HEK293 cells; about a fifth of its hits are not listed in these tables; also: % is scaled to controls: 0 for no effect and ±100 for the full control effect; luciferase read-out
# RE007 growth inh – qHTS Assay for Inhibitors of the HIV-1 protein Vpr | S. pombe RE007 Vpr strain, BacTiter-Glo ATP luminescence, 24 h; control for the full effect not named in the record | Potency, µM (titrated, usually from 92.2 µM), without a hit: at the highest dose activity change, negative = less growth | actives 0.21% (n = 360,000) | AID 651644, 2012; active = well fitted falling curve with a large enough effect; inconclusive = small, poorly fitted or top-dose-only effect; inactive = no such curve, though single readings can be large or run the other way;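 also: % is scaled to controls: 0 for no effect and ±100 for the full control effect; nearly all actives have a fitted effect of over 50% in size; the assay follows cell death caused by Vpr and the record does not say whether a fall means rescue or toxicity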
#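 Fission yeast strain RE007, carrying one chromosomally integrated HIV-1 vpr copy, was seeded at OD 0.01 in PMG+AL medium with 23 nL pinned compound. After 24 h at 30 °C and 99% humidity, viability was read by BacTiter-Glo luminescence.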
# Cruzain inh noDet – qHTS Assay for Promiscuous and Specific Inhibitors of Cruzain (without detergent); Cruzipain (Trypanosoma cruzi), P25779; purified cruzain, Z-FR-AMC fluorescence, no detergent; Potency, µM, for the others: max response, negative = inhibition, most hits filed as inhibitors; actives 2.3% (n = 200,000); AID 1476, 2009;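 also: plate controls were enzyme without inhibitor for no effect and buffer without enzyme for full effect; nearly all actives have a fitted effect of over 40% in size; top concentration of the series not given in the record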
#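 Detergent-free condition (0.00005% Triton X-100) in acetate buffer pH 5.5 with DTT. 1.5 nM enzyme and compound were pre-mixed 15 min, then 2 uM Z-FR-AMC substrate added; reaction progress from fluorescence change between first and third reads (60 s).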
# Active calls of the source: *; ? = inconclusive; nt = not tested or not shown; & = joins results of further samples; [ ] = remark or other dose. Unless noted, calls follow the shape of the dose curve; as a rule, active = well fitted curve in the direction sought with a large enough effect; inconclusive = small, poorly fitted or top-dose-only effect, or another doubt; inactive = no such curve, though single readings can be large; an effect the other way counts as inactive or inconclusive. Potency is read from the fitted curve at half-maximal effect.
SMILES,StopGo reporter,NS1 inh,Cruzain inh Det,Lassa entry inh,SARS PLP yeast,MARV entry inh,RE007 growth inh,Cruzain inh noDet
O=C(CSc1nnnn1Cc1ccccc1)c1ccccc1,62%[activator],-14%,-0.4%,16%,-11%,?,-16%,-3%
Cc1nn(C)c(Oc2ccc(Cl)cc2)c1C(=O)O,0%,3%,0.8%,0%,5%,-21%,0%,7%
COc1ccc(NC(=O)CSc2ccc(F)cc2)cc1S(=O)(=O)N1CCCCC1,-8%,1%,-6.1%,?,-3%,?,-24%,-6%
OCC[C@@H]1C[C@@H](O)[C@H](O)[C@@]2(Cc3ccccc3CCO2)O1,4%,-13%,nt,nt,-1%,nt,-12%,nt
CC(C)(C)c1ccc(OCC(=O)N/N=C/c2cc(Br)ccc2OC(=O)c2ccco2)cc1,-27%,8%,-6.3%,?,-2%,?,0%,?
CC1CCN(C(=O)CN2C(=O)NC3(CCCCCC3)C2=O)CC1,17%,nt,nt,11%,-11%,?,23%,nt
N=c1c(C(=O)NCCc2ccccc2)cc2c(=O)n3ccccc3nc2n1CCCN1CCOCC1,-4%,5%,nt,?,-2%,7.1µM*,-16%,nt
CCOC(=O)Cc1ncccc1C(=O)Nc1ccc(Oc2ccccc2)cc1,-8%,nt,nt,12%,-2%,?,-2%,nt
CCOc1ccccc1CNC(=O)c1cccn1-c1nnc(N2CCCC2)s1,24%,nt,2.3%,-18%[46.1 µM],nt,nt,nt,-9%
CCOC(=O)C(C)Sc1nc(-c2ccc(OC)cc2)nc2c1c(=O)n(C)c(=O)n2C (stereo not drawn),nt,-37%,-3.5%,nt,4%,2%,nt,7%
Cc1oc(-c2ccc(Cl)cc2)nc1CS(=O)CC(=O)NC1CCCCC1 (stereo not drawn),42%[activator],?,nt,nt,1%,nt,-7%,nt
O=C(CCCSc1nnc(Nc2ccccc2F)s1)N1CCOCC1,0%,nt,nt,24%[46.1 µM],1%,?,9%,nt
CC(C)NC(=O)NC(=O)CSc1nncn1C,-21%,6%,3.4%,23%,8%,1%,-7%,-6%
O=C(Nc1ccncc1)C1CC(=O)N(c2ccc(F)cc2)C1 (stereo not drawn),7%,24%,nt,1%[46.1 µM],-4%,0%[46.1 µM],5%,nt
CCCN(CC(=O)Nc1ccccc1OC)C(=O)C1CCCC1,-4%,nt,nt,6%,9%,-2%,4%,nt
O=Cc1c(Nc2cccc(C(F)(F)F)c2)nc2ccccn2c1=O,14%,-1%,nt,-16%,1%,-4%,-5%,nt
CCOc1cc(/C=N/NC(=O)C(C)Sc2ccccn2)ccc1O (stereo not drawn),-6%,-1%,-3.4%,?,?,3%,5%,2%
O=C(COC(=O)/C=C/c1ccc(S(=O)(=O)N2CCOCC2)cc1)NCc1ccccc1,-10%,nt,nt,3%,0%,-4%[46.1 µM],-11%,nt
Clc1ccc2c(c1)CCc1cccnc1C2=C1CCNCC1,-10%,3%,-0.2%&-2.7%,nt,-7%&2%,nt,nt,7%&0%
COc1ccc(OC)c(C(=O)COC(=O)C(CCSC)NC(=O)COc2ccccc2)c1 (stereo not drawn),-13%,nt,nt,-5%,0%,24%[46.1 µM],-5%,nt
O=C1OCCN1C(=O)[C@H]1[C@H](c2ccc(F)cc2)C(c2ccc(F)cc2)=NN1c1ccc(Br)cc1,0%,?,-3.3%&-25%,6%,5%,18%,13%,25µM*
O=C(C1=NN(c2ccccc2)C(=O)CC1)N1CCc2ccccc2C1,8%,-8%,nt,nt,1%,nt,-1%,nt
Nc1nnc(SCC(=O)OCC(=O)Nc2ccc(Br)cc2F)s1,0%,nt,nt,?,1%,-7%[46.1 µM],14%,nt
CC1CCCC(NC(=O)c2ccc3c(SCC(=O)O)c4c(nc3c2)CCC4)C1C (stereo not drawn),-7%,3%,nt,nt,-2%,nt,-1%,nt
COc1ccc(C(=O)CSc2nnc(COc3ccccc3)n2Cc2ccco2)cc1,-25%,-1%,-18%,-24%,-5%,-7%,-11%,3%
CCN(CC)S(=O)(=O)c1cc(NC(=O)NCCCl)ccc1C,5%,-1%,nt,?,-1%,9%[46.1 µM],-3%,nt
COc1ccc(NC(=O)c2ncn(-c3ccccc3)n2)cc1Cl,13%,nt,-2.8%,0%[46.1 µM],nt,?,nt,11%
O=C(c1ccc(Cl)cc1[N+](=O)[O-])N(Cc1ccccc1)Cc1ccccc1,nt,0%,-2.0%,-17%,-66%,-1%,nt,3%
CC(C)Cn1c(-c2csc3ccccc23)n[nH]c1=S,-27%,-2%,-2.2%,?,17%,-5%,11%,1%
CC(Sc1ccccc1)C(=O)N/N=C/c1cccnc1 (stereo not drawn),-10%,-4%,nt,11%,-1%,2%[46.1 µM],-8%,nt
COc1ccc(/C(C)=N/Nc2ccc(F)cc2F)c(O)c1,65%[activator],nt,nt,?,0%,15%,4%,nt
COc1ccc(NC(=O)CN(C)C(=O)c2c(-c3ccccc3Cl)noc2C)cc1,-21%,nt,nt,-11%,-5%,-5%,2%,nt
COC(=O)Nc1ccc(S(=O)(=O)N2CCC(C(=O)N(C)C3CCCCC3)CC2)cc1,0%,nt,nt,-1%,-2%,-33%,9%,nt
O=C(O)CNC(=O)c1ccc(Sc2ccccc2)c([N+](=O)[O-])c1,-11%,5%,nt,-16%,1%,-4%[46.1 µM],32%,nt
N#CC1=C(N)Nc2nc3ccccc3n2C1c1ccc(F)cc1 (stereo not drawn),?,3%,-2.4%,25%,-1%,-1%,0%,?
COc1ccc(-c2nnc(Nc3ccc(OCC(N)=O)cc3)c3ccccc23)cc1,-29%,nt,-6.2%,?,nt,nt,nt,-4%
O=C(N/N=C\c1cccnc1)c1ccc(Cl)s1,0%,-3%,nt,nt,-1%,nt,-12%,nt
CCn1c(CN2CCOCC2)nnc1SCC(=O)Nc1ccccc1Cl,-21%,0%,nt,8%,3%,2%[46.1 µM],6%,nt
COC(=O)c1sccc1S(=O)(=O)N1CCN(c2ccccc2)CC1,-29%,nt,-3.0%,nt,nt,nt,nt,4%
CCOC(=O)/C(=C\C=C1/Sc2cc(OCC)c(OCC)cc2N1CC)C(C)=O,?,21%,-17%,?,14%,?,-9%,?
CN(C)/C=C1/C=C(c2ccccc2)OC1=O,0%,-5%,-3.5%,1%,-10%,1%,-55%,-4%
CCN1C(=O)CC(C(=O)Nc2ccc(F)cc2)SC1=Nc1ccc2c(c1)OCO2 (stereo not drawn),-21%,-9%,-11%,-14%,4%,-7%&-7%,20%,-10%
COc1ccc2cc3cc(C(=O)Nc4cc(C)c(Cl)cc4OC)oc3nc2c1,9%,nt,1.1%,7%[46.1 µM],nt,8%[46.1 µM],nt,3%
Cc1ccc(C)c(N2CCN(C(=O)c3cc(S(=O)(=O)N4CCC(C)CC4)cn3C)CC2)c1,-29%,nt,-1.2%,-3%[46.1 µM],nt,nt,nt,-8%
CCOC(=O)C(C(=O)OCC)C(C)C#CCN1CCCCC1 (stereo not drawn),-6%,3%,2.8%,9%,1%,0%,-1%,0%
O=C(COC(=O)c1cc(S(=O)(=O)N2CCOCC2)ccc1F)NCc1ccc2c(c1)OCO2,-1%,nt,nt,2%[46.1 µM],1%,-6%[46.1 µM],-2%,nt
Cc1ccc(NC(=O)CNC(=O)c2ccco2)cc1Cl,45%[activator],6%,nt,?,-2%,19%,7%,nt
CC(C)N1C(=O)C(O)(c2c[nH]c3ccccc23)c2ccccc21 (stereo not drawn),-18%,nt,-0.4%,2%[46.1 µM],nt,?,nt,-8%
O=C(COc1ccc(S(=O)(=O)N2CCCCC2)cc1Cl)N1CCOCC1,-8%,-4%,nt,0%,0%,-12%[46.1 µM],-20%,nt
Cc1cc(NS(C)(=O)=O)c(=O)n(Cc2cccc(F)c2)c1,6%,-19%,nt,nt,-12%,nt,-5%,nt
CCC(C(=O)OCC(=O)N(C)c1c(N)n(Cc2ccccc2)c(=O)[nH]c1=O)c1ccccc1 (stereo not drawn),-3%,nt,nt,-15%,2%,-16%[46.1 µM],-3%,nt
COc1cc(OC)cc(N(C(=O)CNC(=O)c2cccs2)C(C(=O)NCC2CCCO2)c2ccccc2)c1 (stereo not drawn),-9%,-6%,nt,3%,-1%,?,0%,nt
O=C1/C(=C\c2ccc(O)cc2)CCC1CNc1ccc(Cl)cc1 (stereo not drawn),26%,nt,nt,-15%,nt,?,?,nt
CCOC(=O)CNC(=O)c1cc2c(=O)n3cccc(C)c3nc2n1C,11%,nt,-1.1%,8%[46.1 µM],nt,nt,nt,13%
CCOc1ccc(C2C(=O)N(C3CCCCC3)CC(=O)N2CCC2=CCCCC2)cc1OC (stereo not drawn),-23%,nt,-0.8%,0%[46.1 µM],nt,nt,nt,?
Cc1cc(NC(=O)c2ccc(Br)c([N+](=O)[O-])c2)no1,11%,nt,nt,-5%[46.1 µM],0%,-2%[46.1 µM],-20%,nt
Cc1ccc(-c2noc(CCCc3ccccc3)n2)cc1,16%,?,0.0%,19%,-3%,5%,-16%,-13%
COc1ccc(/C(N)=N/OC(=O)c2ccc3c(c2)OCO3)cc1OC,nt,-6%,-1.1%,?,-10%,?,-4%,-2%
Cc1ccc(Nc2nnc(SCc3cc(=O)n4ccsc4n3)s2)c(C)c1,5%,-1%,-6.3%,0%,-3%,-18%,3%,5%
O=[N+]([O-])c1nn(-c2ccc3c(c2)OCCO3)n(O)c1=NCc1ccc(F)cc1,-10%,-14%,-10%,?,-84%,?,50%,-16%

# Remaining list, next part
SMILES,StopGo reporter,NS1 inh,Cruzain inh Det,Lassa entry inh,SARS PLP yeast,MARV entry inh,RE007 growth inh,Cruzain inh noDet
Cc1cccc(N2CCN(C(=O)CN(C)S(=O)(=O)c3ccc4c(c3)CCC(=O)N4)CC2)c1C,-9%,8%,-1.4%,nt,-2%,nt,8%,?
CCN1CCN(c2ncc3c(n2)CCN(Cc2ccccc2C)C3)CC1,-19%,nt,0.4%,-15%[46.1 µM],nt,nt,nt,-3%
Cc1cc(OCCOCCN(C)C)ccc1Cl,-7%,-13%,-1.7%,18%,-10%,22%,-7%,6%
CS(=O)(=O)Nc1ccccc1C(=O)NCCSc1ccccc1,-9%,-7%,nt,20%,-2%,-2%,6%,nt
Cc1ccc(-n2c(Cc3noc4ccccc34)n[nH]c2=S)cc1,-9%,11%,nt,11%,-1%,2%,0%,nt

# Compound activity as filed in PubChem.
